# GIRK2 activ = activators of human GIRK2 potassium channels; G protein-activated inward rectifier potassium channel 2 (Homo sapiens), P48051; HEK293-GIRK2 thallium flux, Thallos fluorescence; calls only for hits at 25 µM; 63,000 compounds, 0.05% hits;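 active means among the strongest 0.2% of first-round signals and kept after retests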;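 further: first round at about 10 µM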
# Target sequence (P48051 whole entry, looked up): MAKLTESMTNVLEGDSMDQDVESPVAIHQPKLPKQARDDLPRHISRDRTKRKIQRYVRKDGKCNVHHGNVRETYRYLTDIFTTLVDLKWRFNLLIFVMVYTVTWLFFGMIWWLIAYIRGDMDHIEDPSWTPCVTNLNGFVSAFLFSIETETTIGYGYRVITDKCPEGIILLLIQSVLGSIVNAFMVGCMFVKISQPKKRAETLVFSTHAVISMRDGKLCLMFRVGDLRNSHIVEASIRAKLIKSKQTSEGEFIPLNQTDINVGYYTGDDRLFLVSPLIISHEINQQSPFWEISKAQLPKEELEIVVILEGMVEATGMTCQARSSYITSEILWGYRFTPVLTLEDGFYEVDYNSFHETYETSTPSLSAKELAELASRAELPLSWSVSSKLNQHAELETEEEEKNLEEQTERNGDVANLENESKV
# Calls only; i = inactive. This is a subset; count on the stated rates, not on these rows.
mol | GIRK2 activ
CC(O)CN1CCN(C(=O)c2ccc3ncsc3c2)CC1 (centres undefined) | i
CCOc1ccc(-n2c(=S)sc3c(=O)n(C)c(SCC(=O)NCc4ccccc4)nc32)cc1 | i
CCN(CC)CCNC(=O)c1ccc(N)cc1 | i
COc1ccc(/C=C2\Oc3cc(OC(=O)C(C)C)ccc3C2=O)cc1 | i
O=C(CCC(=O)c1ccccc1)NCC#CCOc1ccc2c(c1)OCO2 | i
COc1ccc(CC(=O)N2CCC(Oc3ncccc3Br)CC2)cc1OC | i
O=C(Nc1cnc(N2CCN(c3ccccc3)CC2)nc1)C1CCCC1 | i
CC(=O)Nc1ccc(C(=O)N2CCN(CCn3cccn3)CC2)cc1 | i
O=C(O)CCC/C=C/C[C@@H]1[C@@H](/C=C/[C@@H](O)COc2cccc(C(F)(F)F)c2)[C@H](O)C[C@@H]1O | i
Cc1cccc(-n2c(C)c(C)n3c4c(=O)n(CC(N)=O)c(=O)n(C)c4nc23)c1C | i
O=c1[nH]c2nc(NCc3cccc(C(F)(F)F)c3)ncc2c(=O)n1Cc1ccccc1F | i
COc1cccc(N2C(=O)/C(=C/c3cccnc3)SC2=S)c1 | i
O=C(NCC(Cc1cccc(F)c1)N1CCNC1=O)c1ccc(=O)[nH]c1 (centres undefined) | i
O=C(NCCC1=CCCCC1)c1csc(Nc2ncccn2)n1 | i
O=c1c2ccccc2oc2nc(-c3cccc([N+](=O)[O-])c3)n(CCc3ccccc3)c(=O)c12 | i
CC1CCCC2OC2C(=O)c2c(O)cc(O)cc2CC(=O)O1 (centres undefined) | i
CCCN(Cc1ccsc1)C(=O)c1snnc1C | i
COCCCn1c(C(=O)NCCC2=CCCCC2)cc2c(=O)n3ccccc3nc21 | i
O=C(NCCCn1ccnc1-c1ccccc1)C(=O)Nc1ccc(OC(F)(F)F)cc1 | i
CCN1CCc2c(sc(NC(=O)c3ccc(C(=O)OC)cc3)c2-c2nc3ccccc3s2)C1 | i
CCOc1cc(C(=O)Nc2ccc3c(c2)N(C(=O)CC)CCC3)cc(OCC)c1OCC | i
COC(=O)Cn1c(=O)c2c(nc3n2CCCN3c2ccc(C)cc2)n(C)c1=O | i
COc1cc(CN2CC(c3nc4ccc(C)cc4[nH]3)C2)cc(OC)c1 | i
COc1ccc(S(=O)(=O)c2cnc(N3CCSCC3)nc2N)cc1Cl | i
COc1ccccc1CNC(=O)Cn1c(N)nc(C)c(C)c1=O | i
CCOC(=O)c1cnn(-c2cc(C)nc3nc(C(F)(F)F)nn23)c1N | i
O=C(c1ccc(Br)o1)N1CC(c2nc(-c3cccs3)no2)C1 | i
COc1ccc(Cc2nnc(NC(=O)c3cc(-c4ccco4)on3)o2)cc1 | i
COCCn1c(C(=O)NCCc2c[nH]c3ccccc23)cc2c(=O)n(C)c(=O)n(C)c21 | i
O=C(O)CCCCCCC1C(=O)NC(=O)N1CCC(O)C1CCCCC1 (centres undefined) | i
Cn1nc(N2CCC(C(=O)Nc3nc4ccc(S(C)(=O)=O)cc4s3)CC2)ccc1=O | i
Cc1ccc2nc(-c3ccc(NC(=O)c4cc(C)no4)cc3)sc2c1 | i
CC1(C)CC(NS(=O)(=O)c2ccc(C(C)(C)C)cc2)CC(C)(C)N1 | i
CCOc1ccccc1NC(=O)Cn1nc2c(Sc3ccc(C)cc3C)nccn2c1=O | i
Cc1nc(C)c(CNC(=O)Cc2ccc(Br)cc2)s1 | i
COc1cc2[nH]c3c(=O)n(CC(=O)NCc4ccco4)cnc3c2cc1OC | i
O=C(Cn1cnc2c([nH]c3ccccc32)c1=O)N1CCN(c2ccc(Cl)cc2)CC1 | i
CN(C)S(=O)(=O)c1ccc(C(=O)N2CCN(c3ccc4nncn4n3)CC2)cc1 | i
O=C(COc1ccccc1F)Nc1ccc(S(=O)(=O)N2CCN(c3cnccn3)CC2)cc1 | i
Cn1cc(-c2ccc(F)cc2)c2ncn(CC(=O)NCCc3ccccc3)c(=O)c21 | i
Cc1cc(C)c2sc(N(CCCn3ccnc3)C(=O)/C=C/c3cccs3)nc2c1 | i
Cn1c(=O)c2c(nc3n2CC(c2ccc(F)cc2)=NN3CC(=O)c2ccc(F)cc2)n(C)c1=O | i
COC(=O)N1CCc2c(sc(NC(=O)c3ccc(SC)cc3)c2-c2nc3ccccc3s2)C1 | i
COC1(CNC(=O)c2ccc(S(=O)(=O)N(C)C)cc2)CCSC1 (centres undefined) | i
CCc1cccc(NC(=O)Cn2c(=O)n(CC3CCC(C(=O)NC)CC3)c(=O)c3sccc32)c1 (centres undefined) | i
CCCCCNc1nc2c(c(=O)n(C)c(=O)n2C)n1C/C=C(\C)Cl | i
CCOC(=O)c1cnn2ccc(NC(=O)c3nc4ccccc4s3)cc12 | i
Cc1[nH]c2ccccc2c1C(=O)C(=O)N1CCN(Cc2nnnn2-c2ccccc2)CC1 | i
O=C(/C=C/C1=Cc2ccccc2OC1)NC1CCCC1 | i
COc1cc(C(=O)NCC2CCN(C(C)C)CC2)cc(OC)c1OC | i
C/C=C1/[C@H]2C=C(C)C[C@]1(N)c1ccc(=O)[nH]c1C2 | i
Cc1ccc(NC(=O)CSc2nccn(-c3cccc(C)c3)c2=O)cc1 | i
CN(C)C(CNC(=O)C(=O)Nc1ccon1)c1ccc2c(c1)CCO2 (centres undefined) | i
CCOc1ccc(C2NC(=O)NC(C)=C2C(=O)Nc2ccc(F)c(F)c2)cc1OC (centres undefined) | i
CCc1cccc(NC(=O)Cn2c(C)cc(C)c(S(=O)(=O)c3ccccc3)c2=O)c1 | i
Cc1oc(-c2ccc(Cl)cc2[N+](=O)[O-])cc1-c1nnc(-c2ccco2)o1 | i
O=C(CN1C(=O)c2cccc3cccc(c23)C1=O)Nc1cccc2cnccc12 | i
O=C(CN1CC(c2nc(C3CC3)no2)C1)NCc1ccc(F)cc1 | i
COC(=O)c1ccc2c(=O)n(-c3ccc(OC)cc3)c(N3CCN(c4ccccc4)CC3)nc2c1 | i
COc1ccc(SCC2CCN(C(=O)C3(c4ccccc4)CCOCC3)CC2)cc1 | i

# Continuation:
mol | GIRK2 activ
O=C(Cc1cccs1)Nc1ccc(N2CCCS2(=O)=O)cc1 | i
COc1ccc(CNC(=O)Nc2ccc3c(c2)CCC(=O)N3CCC(C)C)cc1OC | i
CCOC(=O)CCC(=O)NCCc1csc(-n2nc(C)cc2C)n1 | i
Cn1nc(CNC(=O)c2cc(C3CC3)on2)cc1-c1ccncc1 | i
OC(CN1CCN(c2cccc(Cl)c2)CC1)c1ccc2c(c1)OCO2 (centres undefined) | i
O=C(Nc1ccc(-n2cnnn2)cc1)c1cnn2c1OCCC2 | i
O=C(Nc1ccc(Cl)c(N2CCCS2(=O)=O)c1)c1cc(-c2ccccc2)on1 | i
CCOc1ccc(-n2nnnc2CN2CCN(C(=O)NCCc3ccccc3)CC2)cc1 | i
COc1ccc(-c2ccc(=O)n(C(C)C(=O)Nc3ccc(-c4ccc(=O)[nH]n4)cc3)n2)cc1 (centres undefined) | i
Cc1ccc(NC(=O)c2nnn(-c3ccc(C)c(C)c3)c2-c2cccnc2)c(C)c1 | i
Cc1ccc(N(C)S(=O)(=O)c2c(-c3cccc(F)c3)csc2C(=O)NCc2cccnc2)cc1 | i
COc1ccc(NC(=O)Cc2cccc3ccccc23)cc1N1CCCC1=O | i
COc1ccc(CCC(=O)NCCOc2ccc3c(c2)OCO3)cc1 | i
COc1ccc(NC(=O)C(=O)NCCC(O)c2ccc3c(c2)OCO3)cc1Cl (centres undefined) | i
CCc1noc(-c2ccc(=O)n(CC(=O)Nc3ccc(OC)cc3)c2)n1 | i
Cc1c(O)ccc2c(CN3CCN(Cc4ccccc4)CC3)cc(=O)oc12 | i
Cc1nc(C)c(-c2nnc(NC(=O)c3nc4ccccc4s3)o2)s1 | i
COc1ccc(-c2cc(N3CCN(C(=O)c4ccc(S(=O)(=O)N(C)C)cc4)CC3)ncn2)cc1 | i
CCOC(=O)CC(=O)CSc1nc2sc(C)cc2c(=O)n1C | i
Cn1cc(C(=O)NC2CCCC2)c(S(=O)(=O)N2CCN(c3ccc(Cl)cc3)CC2)n1 | i
O=C(CCc1csc(NC(=O)NC2CCCCC2)n1)NCc1ccccc1 | i
Cc1cn2c3c(=O)n(CC(N)=O)c(=O)n(C)c3nc2n1-c1ccccc1Cl | i
COc1cccc(-n2nnc(C(=O)NCc3ccc(C(C)C)cc3)c2-c2ccncc2)c1 | i
Cc1ccc(CNC(=O)Cn2c(=O)[nH]c3c(-c4ccccc4F)c[nH]c3c2=O)cc1 | i
COc1ccc(CNC(=O)N2CC(Oc3nc4c(Cl)cccc4s3)C2)cc1OC | i
COc1ccc(C(=O)N2CCN(c3oc(-c4ccccc4OC)nc3C#N)CC2)cc1 | i
COc1cccc(CNC(=O)C(=O)Nc2ccc(N3CCCS3(=O)=O)cc2)c1 | i
CC(C)C(=O)N1CCCC(c2nnc(-c3ccc4c(c3)OCO4)o2)C1 (centres undefined) | i
CCCNc1nc2c(c(=O)[nH]c(=O)n2C)n1CC(=O)c1ccccc1 | i
Cc1cccc(Cn2c(C3CC(=O)N(c4ccc(F)cc4)C3)nc3ccccc32)c1 (centres undefined) | i
O=C(COc1ccccc1)N1CCC(c2nnc(C3CC3)s2)CC1 | i
Cc1c(O)ccc2c(CN3CCN(C/C=C/c4ccccc4)CC3)cc(=O)oc12 | i
COc1ccc(CNC(=O)CCCCn2c(=O)[nH]c3ccccc3c2=O)cc1 | i
O=C(c1ccc(Cl)cc1Cl)N1CC(c2nc(C3CC3)no2)C1 | i
COc1ccc(CC(=O)NCCn2nc(C)cc2C)cc1 | i
CCC(C)n1c(C)c(C)n2c3c(=O)n(Cc4cccc(C)c4)c(=O)n(C)c3nc12 (centres undefined) | i
COc1cccc(Nc2c(C(=O)N3CCSCC3)cnc3nc(C)ccc23)c1 | i
C/C=C/COc1ccccc1-n1c(C)cn2c3c(=O)n(C)c(=O)n(C)c3nc12 | i
COc1ccc(-n2cc(C(=O)OCC(=O)OC(C)(C)C)c3ccccc3c2=O)cc1 | i
Cc1ccc(=O)n(CC(=O)Nc2nc3ccccc3[nH]2)n1 | i

# 5 compounds drawn at random from those above:
mol | GIRK2 activ
COc1ccc(CNC(=O)CCCCn2c(=O)[nH]c3ccccc3c2=O)cc1 | i
C/C=C/COc1ccccc1-n1c(C)cn2c3c(=O)n(C)c(=O)n(C)c3nc12 | i
CCC(C)n1c(C)c(C)n2c3c(=O)n(Cc4cccc(C)c4)c(=O)n(C)c3nc12 (centres undefined) | i
COc1cccc(-n2nnc(C(=O)NCc3ccc(C(C)C)cc3)c2-c2ccncc2)c1 | i
Cc1cccc(Cn2c(C3CC(=O)N(c4ccc(F)cc4)C3)nc3ccccc32)c1 (centres undefined) | i

# (cont.)
mol | GIRK2 activ
O=C1CC(NC(=O)Cn2ccc3ccccc32)CN1 (centres undefined) | i
CCc1ccc(Cc2cnc(N3C(=N)SC(C)C3=O)s2)cc1 (centres undefined) | i
O=C(Cn1c(=O)oc2ccccc21)Nc1nnc(-c2ccco2)o1 | i
CCOc1cccc2cc(C(=O)Nc3ccccc3CC)c(=O)oc12 | i
O=C(COc1ccc(Cl)cc1Cl)NCCC(O)c1ccc2c(c1)OCO2 (centres undefined) | i
COc1ccc(CC(=O)Nc2ccc(Cn3cnc(C(=O)Nc4ccccc4)c3)cc2)cc1 | i
COc1ccccc1C1C(=C(O)c2ccc3c(c2)OCCO3)C(=O)C(=O)N1CCN(C)C (centres undefined) | i
Cc1ccc(-c2ccc3nnc(CCC(=O)NCc4ccc(Br)cc4)n3n2)cc1 | i
O=C1NC(=O)C(c2c[nH]c3ccccc23)=C1c1ccccc1 | i
Cc1nc(-c2ccco2)sc1CNS(=O)(=O)N(C)C | i
Cc1cc(C)cc(NC(=O)CN2CCC(C(=O)N3CCc4ccccc43)CC2)c1 | i
COc1cccc(CNC(=O)Cn2c(C)cc(C)c(-c3nc(-c4cccc(Cl)c4)no3)c2=O)c1 | i
O=C(Cn1nc2c(Oc3ccc(Cl)cc3)nccn2c1=O)NCc1ccco1 | i
CCOc1ccc(NC(=O)c2ccc(C(C)=O)cc2)c([N+](=O)[O-])c1 | i
CCOC(=O)c1c(NC(=O)CCS(=O)(=O)Cc2ccccc2)sc(C)c1C | i
CCOc1ccc(NC(=O)Nc2c(C)nc3ccc(Cl)cn3c2=O)cc1 | i
CC(C)NC(=O)CCCCn1c(=O)c2ccccc2n(CC(=O)NCc2ccc3c(c2)OCO3)c1=O | i
COc1ccc(-c2ccc(=O)n(CCNS(=O)(=O)c3cccnc3)n2)cc1 | i
O=C(Nc1cccc(-c2nc3ccccc3s2)c1)C1CCN(S(=O)(=O)c2ccc(F)cc2)CC1 | i
Cc1c(CNC(=O)Nc2cccs2)sc2nc(-c3ccc(F)cc3)cn12 | i
CCCCN1CC(c2nc3ccccc3n2CCOc2cccc(C)c2)CC1=O (centres undefined) | i
COC(=O)c1c(C)cc(O)c(C)c1OC1C(=O)C(C)=C(O)C(O)C1(C)OC (centres undefined) | i
Cc1nnsc1C(=O)Nc1cnc(N2CCN(c3ccccn3)CC2)nc1 | i
O=C(CN1CC(c2nc(C3CC3)no2)C1)N1CCCc2ccccc21 | i
CCCCCCCC/C=C\CCCCCCCCOCCOP(=O)([O-])OCC[N+](C)(C)C | i
CCOc1ccc(C2C(C(N)=O)=C(C)Nc3ncnn32)cc1OCC (centres undefined) | i
Cc1nnsc1C(=O)N1CCN(CC(=O)c2cccs2)CC1 | i
COc1ccccc1CNC(=O)C(C)Cn1nc(-c2ccco2)ccc1=O (centres undefined) | i

# Another view of 4 compounds above.
CCOc1ccc(C2NC(=O)NC(C)=C2C(=O)Nc2ccc(F)c(F)c2)cc1OC (centres undefined)
  GIRK2 activ: i
CCc1cccc(NC(=O)Cn2c(C)cc(C)c(S(=O)(=O)c3ccccc3)c2=O)c1
  GIRK2 activ: i
Cc1oc(-c2ccc(Cl)cc2[N+](=O)[O-])cc1-c1nnc(-c2ccco2)o1
  GIRK2 activ: i
O=C(CN1C(=O)c2cccc3cccc(c23)C1=O)Nc1cccc2cnccc12
  GIRK2 activ: i
